# Six1-Eya2 blk – Six1/Eya2 interaction inhibition; Q15475+O00167; AlphaScreen GST-Six1/His-Eya2 binding, biochemical; active compounds read low; control for the full effect not named in the record; activity change, % (concentration not given with the values); 360,000 tested, 0.56% active; in the data active = activity change below about -65%; inconclusive = about -30% to -65%; inactive = above about -30%; further: on the % scale 0 is the no-effect control and ±100 the full control effect
#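 Six1/Eya2 binding was read as AlphaScreen signal after compounds were pinned into GST-Six1 plus His-tagged Eya2 (5X stock 250/500 nM) in pH 8.0 Tris/NaCl/TCEP buffer, beads added, then incubated 1 h, 37 C, dark.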
# D2 ag – agonists of human D2 dopamine receptor (beta-arrestin) | activation, % (concentration not given with the values) | 360,000 tested, 0.084% active | DiscoveRx PathHunter D2 beta-arrestin, luminescence, 90 min; 100% = 57 uM dopamine signal | AID 624465; in the data active = activation above about 40%; inconclusive = about 15% to 40%; inactive = below about 15%; further: compound concentration not given in the record; the text of the record calls up to 30% inactive
# Target sequence (P14416 whole entry, looked up): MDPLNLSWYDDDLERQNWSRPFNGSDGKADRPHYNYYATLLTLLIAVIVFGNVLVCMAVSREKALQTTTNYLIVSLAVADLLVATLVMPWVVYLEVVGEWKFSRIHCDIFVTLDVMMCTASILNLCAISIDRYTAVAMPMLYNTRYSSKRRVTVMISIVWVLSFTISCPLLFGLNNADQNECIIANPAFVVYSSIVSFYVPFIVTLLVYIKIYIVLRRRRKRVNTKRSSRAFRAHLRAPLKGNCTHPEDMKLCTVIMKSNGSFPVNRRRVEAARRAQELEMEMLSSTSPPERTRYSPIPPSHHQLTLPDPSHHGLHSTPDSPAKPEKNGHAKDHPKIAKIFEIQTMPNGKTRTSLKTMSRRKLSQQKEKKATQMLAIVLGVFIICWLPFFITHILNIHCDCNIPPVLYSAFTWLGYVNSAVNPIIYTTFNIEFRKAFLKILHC
#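 DiscoveRx PathHunter D2 beta-arrestin cells (2,100/well) attached overnight, then compound-stimulated 90 min at 37 C in HBSS/10 mM HEPES/0.1% Tween-20 buffer; beta-galactosidase complementation read by luminescence after 1 h at ambient temperature. Dopamine 57 uM final (EC100) as control.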
# TRPML1 blocker – inhibitors of human TRPML1 channel; Q9GZU1; TRPML1-inducible cells, Ca2+ dye fluorescence, FDSS; active compounds read low; inhibition of EC80 agonist-evoked calcium signal; activity change, negative = inhibition, % (no concentration beside the values); 390,000 tested, 0.02% active; AID 624415; in the data active means activity change below about -50%; inconclusive means about -30% to -50%; inactive means above about -30%;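 further: stimulus is agonist 54-4 at its EC80 concentration; on the % scale 0 is the no-effect control and ±100 the full control effect; compound concentration not given in the record; the text of the record puts the active cut at -80%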
# Target sequence (Q9GZU1 whole entry, looked up): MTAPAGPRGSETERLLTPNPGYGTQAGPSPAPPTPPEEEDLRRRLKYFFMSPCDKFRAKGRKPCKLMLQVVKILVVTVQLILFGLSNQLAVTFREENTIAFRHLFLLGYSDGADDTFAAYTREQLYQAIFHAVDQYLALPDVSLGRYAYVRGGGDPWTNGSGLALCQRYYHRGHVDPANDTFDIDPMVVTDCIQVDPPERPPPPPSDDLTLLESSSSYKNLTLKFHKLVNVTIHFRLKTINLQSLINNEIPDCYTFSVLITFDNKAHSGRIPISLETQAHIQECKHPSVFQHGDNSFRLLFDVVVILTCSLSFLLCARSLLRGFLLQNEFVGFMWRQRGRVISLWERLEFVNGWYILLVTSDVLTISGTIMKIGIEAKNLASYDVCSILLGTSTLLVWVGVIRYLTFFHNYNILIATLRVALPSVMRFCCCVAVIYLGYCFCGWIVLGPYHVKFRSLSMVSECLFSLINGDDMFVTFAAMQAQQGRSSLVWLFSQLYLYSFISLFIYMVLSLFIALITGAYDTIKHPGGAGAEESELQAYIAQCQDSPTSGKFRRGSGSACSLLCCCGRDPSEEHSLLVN
#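 Calcium fluorescence in TRPML1-DL cells induced overnight with Tet: a 110 s read after compound pin addition, then a 110 s antagonist read after challenge with 54-4 at 4 uM final (EC80).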
# TRPML1 ag – agonists of human TRPML1 channel; TRPML1-expressing cells, Ca2+ dye fluorescence, FDSS; host cell line not named in the record; reference of the full effect not given here; activation, % (test concentration not listed); 410,000 tested, 0.12% active; in the data active = activation above about 50%; inconclusive = about 30% to 50%; inactive = below about 30%; further: 0% is about no effect; the text of the record puts the active cut at 80%
#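 Tet-induced TRPML1-DL cells, 1,500 per well, cultured overnight, were loaded with a no-wash Ca2+ dye for 45–90 min. Calcium fluorescence was recorded on the FDSS for 110 s after compound addition, before the EC80 agonist (4 uM 54-4) was added.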
# CtBP-E1A blk – blocks the CtBP interaction with E1A; AlphaScreen GST-E1A/His-CtBP binding, 1536-well; active compounds read low; control for the full effect not named in the record; activity change, % (concentration not given with the values); AID 651724; 340,000 tested, 0.49% active; in the data active means activity change below about -65%; inconclusive means about -30% to -65%; inactive means above about -30%; further: on the % scale 0 is the no-effect control and ±100 the full control effect
#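 AlphaScreen with 125 nM GST-E1A and 125 nM His-CtBP (5X stocks) in Tris pH 8.0, 300 mM NaCl, BSA, Tween 20, TCEP. Compounds preincubated 2 h at 37 deg C, then glutathione donor/nickel acceptor beads added for 1 h at 37 deg C in dark.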
# PINK1 modulator – changes PINK1 expression; PINK1 immunofluorescence, high-content cytometry, 24 h; Potency, µM (titrated, usually from 76.6 µM), for inactives: at the highest dose activation (PINK1 increase), hits mostly activators; 410,000 tested, 0.2% active; AID 624263; active = well fitted activation curve with a large enough effect; inconclusive = small, poorly fitted or top-dose-only effect; inactive = flat fitted curve, though single readings scatter; cell line not stated here;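 further: potency means the concentration at half of the fitted maximal effect; % of control where 0% means no effect; nearly all actives have a fitted effect of over 65% in size; a mitochondrial uncoupler was the plate control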
#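 Decision-based qHTS: stable cells, 24 h exposure to five compound concentrations, CCCP as control. Fixed cells stained for PINK1 plus nuclear, mitochondrial and cell markers, cytometer read.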
# * = called active by the depositor; ? = inconclusive; nt = no result given; [ ] = dose if it differs, or a comment.
# Second line of a record – Six1-Eya2 blk	D2 ag	TRPML1 blocker	TRPML1 ag	CtBP-E1A blk	PINK1 modulator
> CCCCNC(=O)Cn1cnc([N+](=O)[O-])n1
    6	-2.8	-5	0.2	nt	2.2%
> Cc1ccc(S(=O)(=O)Nc2ccccc2F)cc1C(=O)NNC(=O)c1csc(N2CCOCC2)n1
    0	-5.5	-8	0.6	-18	1.1%
> CC1=NN(c2nc3ccccc3[nH]2)C(=O)/C1=C/N(C)C
    ?	-3.7	10	-0.4	?	-0.8%
> S=c1[nH]nc(-c2cc(-c3ccccc3)n[nH]2)n1/N=C/c1c2ccccc2cc2ccccc12
    -18	0.6	5	0.8	-21	-0.6%
> CCN(CC)S(=O)(=O)c1ccc(N2CCCC2)c(NC(=O)c2c(-c3ccccc3)noc2C)c1
    -10	-4.6	-8	2.0	-7	3.5%
> CCN(C[C@H]1N[C@@](Cc2ccccc2)(C(=O)OC)[C@H]2C(=O)N(C)C(=O)[C@@H]12)C(C)=O
    -1	-1.7	-14	1.4	-16	-1.7%
> CCc1cc(C(=O)NNC(=O)CCl)sc1C
    5	5.5	40	0.3	nt	10%
> Clc1ccc(CSc2ncccn2)cc1
    20	-0.2	-3	1.4	14	3.0%[38.3 µM]
> Cc1ccc(C(=O)OCC(=O)NC2CC2)cc1S(=O)(=O)N1CCOCC1
    -1	4.7	9	1.8	7	1.4%
> COc1ccc(C(=O)CCC(=O)N2CCN(c3cc(C)ccc3C)CC2)cc1
    -1	0.0	34	1.4	-10	-1.8%
> NC(=O)C1CCN(C(=O)c2ccco2)CC1
    5	-1.8	4	0.0	4	-1.6%[38.3 µM]
> Cc1noc(C)c1C(=O)OC(C)C(=O)NC(C)c1ccc(Cl)cc1Cl (configuration not stated)
    1	7.9	5	0.6	nt	1.0%
> CCC(=O)NCCNc1nc2cc(C)cc(C)c2cc1C#N
    4	-0.1	9	0.9	-13	-0.7%
> O=S(=O)(Nc1ccc(Cl)cc1)c1cccc2cccnc12
    ?	-2.8	-1	-1.2	?	1.9%
> COc1cccc(Oc2cncnc2-c2ccc(OC)cc2O)c1
    -2	6.2	-2	1.5	-3	1.3%
> C=CCn1c(C)nnc1SCC(=O)Nc1oc(C)c2c(C)n[nH]c(=O)c12
    2	-3.6	-2	0.2	0	-0.9%
> O=C(O)CSC1CC(=O)N(c2ccc(Cl)cc2)C1=O (configuration not stated)
    2	0.8	-8	-0.1	-5	-3.6%
> CCOC(=O)c1ccc(-n2c(CCC(=O)O)ccc2-c2ccc(Br)cc2)cc1
    nt	nt	22	2.0	nt	-0.1%
> N#C/C(=C\C=C\c1ccccc1)c1nc(-c2ccc3c(c2)OCO3)cs1
    43	0.2	1	0.8	0	?
> Cc1cc(/C=C2/NC(=O)NC2=O)c(C)n1-c1ccc(C#N)cc1
    -2	5.1	9	1.9	nt	-0.9%

# Other compounds:
# Second line of a record – Six1-Eya2 blk	D2 ag	TRPML1 blocker	TRPML1 ag	CtBP-E1A blk	PINK1 modulator
> COCCCNc1c2c(nc3ccccc13)CCC2
    -15	-1.7	-3	-0.8	-4	0.9%
> O=C(COC(=O)c1cc(-c2ccccc2)nc2ccccc12)c1ccc(Br)cc1
    nt	nt	-15	1.1	nt	1.8%
> COc1ccc(C(CNC(=O)c2oc3ccc(Br)cc3c2C)N2CCCCC2)cc1 (configuration not stated)
    3	3.8	31	-1.6	-13	?
> COc1ccc(Cl)cc1N1C(=O)C2CCCN2C1c1ccccc1F (configuration not stated)
    4	-1.6	-4	0.6	-2	1.0%
> CC(=O)c1ccc(Nc2c([N+](=O)[O-])ccc3nonc23)cc1
    0	9.7	15	1.4	3	-1.2%
> COc1ccc(S(=O)(=O)N2CCOCC2)cc1NC(=O)c1ccccc1-c1ccc(C(F)(F)F)cc1
    2	-3.1	70	2.0	-1	12%
> Cc1cccc(N2CCN(C(=O)c3cc(=O)[nH]c4ccccc34)CC2)c1C
    -1	1.0	-5	1.1	6	1.3%
> COC(=O)[C@]1(C)N[C@H](CN(C)C(=O)c2ccc(C(C)(C)C)cc2)[C@@H]2C(=O)N(C)C(=O)[C@@H]21
    -1	-2.0	7	1.5	8	-1.1%
> Cn1c(-[n+]2c(-c3ccccc3)cc(-c3ccccc3)cc2-c2ccccc2)nc2c([N+](=O)[O-])cccc21
    -1	-9.0	16	3.5	0	?
> CCN(CC)C(=O)c1cc(S(=O)(=O)N2CCCCC2)c[nH]1
    0	1.6	-4	-1.0	0	1.3%
> Cc1cccc(CNC(=O)c2ccc3nc(-c4ccccc4)c(-c4ccccc4)nc3c2)c1
    nt	nt	13	0.2	nt	1.8%
> COc1ccc(N2CCN(C(=O)c3ccc(Br)o3)CC2)cc1
    -11	-4.2	0	0.3	-5	-0.9%
> O=C(Nc1ccc(Br)cn1)c1ccc2nccnc2c1
    -6	-0.4	18	-1.7	2	14%
> O=C(CCNS(=O)(=O)c1ccccc1F)N1CCN(S(=O)(=O)c2cccc(F)c2)CC1
    -4	-0.2	-11	-0.5	14	-0.6%
> C=CCn1c(=O)c2ccccc2n2c(SCc3nc(N)nc(Nc4ccccc4C)n3)nnc12
    -5	-0.5	8	1.7	-4	?
> CC(=O)c1ccc(NC(=O)CSc2nnc3ccc(-c4ccccn4)nn23)cc1
    15	-1.0	4	0.1	-4	4.8%
> COc1ccc(CCNCCN2CCOCC2)cc1
    0	-0.5	4	0.9	nt	-0.3%
> COc1cccc(CNC(=O)c2cc(Sc3cccc(Cl)c3)nc3ccccc23)c1
    nt	nt	-8	3.0	nt	-3.4%
> CC(=O)Nc1cc2nc(C)n(Cc3ccccc3[N+](=O)[O-])c2nc1C
    2	-6.3	-13	0.0	6	3.0%
> COc1ccc(CCNC(=O)/C=C/c2ccc(C)cc2)cc1OC
    9	1.0	4	0.0	-5	1.4%

# Remaining list, next part:
# Second line of a record – Six1-Eya2 blk	D2 ag	TRPML1 blocker	TRPML1 ag	CtBP-E1A blk	PINK1 modulator
> N#CCn1c(CN2CCCC2)nc2ccccc2c1=O
    1	-2.9	2	0.9	7	-0.3%
> CN(C)/C=C1\C(=O)N(c2ccc(Cl)c(Cl)c2)CS1(=O)=O
    -6	-1.6	2	2.4	13	1.8%
> COc1ccccc1CN1CCC(CNS(=O)(=O)c2cc(-c3cc(C)no3)ccc2C)CC1
    -5	-6.7	-4	-0.4	-10	-0.7%
> C=CCOc1ccc(CNc2ccc(NC(=O)CCC)cc2)cc1OCC
    -11	4.4	9	0.8	-1	0.4%
> O=C(C=Cc1ccccc1)CC(c1ccccc1)N1CCOCC1 (configuration not stated)
    -1	-4.5	-13	1.5	2	-1.1%
> CC(Sc1nnc(Cc2ccccc2)o1)C(=O)NC1(C#N)CCCCC1 (configuration not stated)
    5	-2.3	27	-1.1	nt	2.2%
> COc1ccc(-n2ncc3c(SCC(=O)NNC(C)=O)ncnc32)cc1
    4	-1.1	-4	0.2	-5	-1.8%
> COc1ccc(-c2nc3ccccc3nc2-c2ccc(OC)cc2)cc1
    60	-2.3	-12	2.0	54	3.6%
> CCC(COC)NCc1cn(-c2ccc(F)cc2F)nc1-c1ccccc1C (configuration not stated)
    6	-3.7	4	-0.6	2	0.9%
> CN(Cc1ccccc1)c1nc2c(c(=O)[nH]c(=O)n2C)n1C
    -2	-0.5	-4	-0.8	8	0.2%
> COCCN1CCN(C(=O)c2cc(COc3ccc(Cl)cc3OC)on2)CC1
    2	-0.4	-11	-0.8	11	2.9%
> CCOc1ccc(NC(=O)Cn2nc(C(N)=O)c3ccccc3c2=O)cc1S(=O)(=O)N1CCCC1
    -3	-1.8	-5	1.4	-7	1.4%
> CCCCOc1ccccc1NC(=O)CSc1nnnn1C(C)(C)C
    1	-1.9	21	2.9	5	-1.1%
> CC1=Nn2c(nc(-c3ccccc3)c2-c2ccccc2)NC(=O)C1Br (configuration not stated)
    -18	-5.3	-5	0.6	1	0.7%
> CCOC(=O)c1c(C)[nH]c(O)c1C=Nc1ccc(Cl)cc1
    -17	-2.5	25	1.9	-25	1.4%
> O=C(NC1CCCCC1)n1c(=O)oc2ccccc21
    3	-3.8	-8	0.2	15	1.0%
> O=C(c1ccccc1)C1CN(c2ccccc2)CC1c1ccc(Cl)cc1 (configuration not stated)
    3	4.2	15	-1.7	0	3.0%
> C/C=C(\C)CN1CCC(n2nccc2NC(=O)c2ccc3c(c2)OCO3)CC1
    -1	-5.0	14	0.2	-6	-0.4%
> COc1ccc(-c2csc(C(C)(O)c3ccccc3)n2)cc1OC (configuration not stated)
    2	10	nt	-0.8	4	-0.6%
> COC(=O)c1nc(-c2ccccc2)oc1N1CCOCC1
    -3	-1.1	-3	0.1	6	-1.8%

# A few values from above.
# COc1ccc(-c2csc(C(C)(O)c3ccccc3)n2)cc1OC (configuration not stated) @ CtBP-E1A blk: 4
# CC1=Nn2c(nc(-c3ccccc3)c2-c2ccccc2)NC(=O)C1Br (configuration not stated) @ TRPML1 ag: 0.6

# Further records.
# Second line of a record – Six1-Eya2 blk	D2 ag	TRPML1 blocker	TRPML1 ag	CtBP-E1A blk	PINK1 modulator
> COc1ccc(CCN2C(=O)c3[nH]nc(-c4ccccc4O)c3C2c2ccc(OC)cc2)cc1 (configuration not stated)
    nt	nt	48	-0.5	nt	2.9%
> CCOC(=O)c1ccc(NC(=O)NCc2ccccn2)cc1
    -2	-1.8	7	0.7	-17	1.7%
> COC(=O)CN=Cc1c(O)n(-c2ccc(Cl)cn2)c(=O)c2ccccc12
    7	-1.0	11	0.4	6	-0.6%
> CN(C)S(=O)(=O)c1ccc(C(=O)NCc2nc3ccccc3s2)cc1
    5	-1.1	11	-0.2	-4	-0.6%
> O=C(N/N=C/c1cc2c(cc1Br)OCO2)c1cc2ccccc2o1
    -2	-2.7	-14	1.0	3	3.1%
> CCCNC(=O)COc1ncnc2sc(C)c(C)c12
    14	-0.7	-6	-0.5	5	-0.7%
> CCc1ccc(OCC(=O)NNC(=O)C2CCC2)cc1
    5	-1.3	10	1.4	1	-0.1%
> COc1cccc(-c2ccc(C#N)c(SCC(=O)NCCc3ccccc3)n2)c1
    1	-5.4	-15	-0.7	-2	4.1%
> Cc1ccc2c(c1)C(=O)C(=O)N2Cc1ccc(Cl)cc1
    -1	-11	0	0.3	4	-0.5%
> CCOC(=O)C1=NN(C(=O)Cc2ccccc2)C(O)(c2ccc(Cl)cc2)C1 (configuration not stated)
    0	5.0	-9	1.4	2	6.5%
> O=C(Nc1nncs1)C1COc2ccccc2O1 (configuration not stated)
    1	-1.4	14	-0.3	-1	6.3%
> Cc1nnc(N(CCC#N)CCC#N)s1
    -13	-8.1	-11	-0.6	-4	2.7%
> Cc1ccccc1C(=O)Nc1ccc2nc3n(c(=O)c2c1)CCC3
    -26	-0.9	-2	-0.8	?	0.9%
> COc1ccc(N2CCN(CCCNC(=O)c3ccc4nc(Cc5ccccc5)oc4c3)CC2)cc1
    nt	nt	-2	0.1	nt	1.3%
> Cc1ccc(-c2nnc(Nc3ccccc3)c3ccccc23)cc1S(=O)(=O)NCc1nc2ccccc2[nH]1
    nt	nt	3	-0.6	nt	3.3%
> CCc1c(C(=O)NCCc2cccc(C)c2)[nH]c(C)c1C(C)=O
    1	7.1	1	1.6	-5	3.7%
> CCOc1cc(S(=O)(=O)N(CC)CC)ccc1F
    6	-0.1	22	1.6	6	-1.8%[38.3 µM]
